Assay outcomes from PubChem.
BJeLR viability – BJeLR cell viability loss. BJeLR (HRASV12) viability, CellTiter-Glo ATP luminescence, 48 h; reference of the scale not given here. inhibition, % (concentration not given with the values). 0.17% of 300,000 active. AID 1554;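 active = replicate mean above 50%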;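 note: 50 nL library stock added to about 25 µL; numbers are from one replicate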
Sa RN4220 lethal – kills Staphylococcus aureus RN4220. S. aureus RN4220 growth, OD600, 16 h. 0.33% of 330,000 active. inhibition, % (test concentration not listed);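 active = z-score of -3 or lower and OD600 up to 0.18 on both plates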;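 note: plate controls were untreated cells for no effect and reference antibiotic for full effect; stock transfer was 100 nL into about 80 µL; one replicate is shown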
Autofluor counter – counter-screen for toxin protease inhibitors: compound fluorescence | compound autofluorescence counterscreen, microsphere flow cytometry; stronger effect = higher value | fluorescence intensity (no concentration beside the values) | 3.1% of 360,000 active;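 active = at least 3 SD above the mean of all compounds, about 16000 in these data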;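 note: 100 nL of 1 mM stock went into each well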
ugtP null kill – kills S. aureus RN4220 lacking UgtP. S. aureus RN4220 ugtP deletion, OD600 growth, 16 h; some inactives read as strong as hits. growth inhibition, % (no concentration beside the values). 0.54% of 330,000 active;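 active = z-score under -3 and OD600 up to 0.15 on both plates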;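 note: plate controls were untreated wells for no effect and antibiotic for full effect; wells of about 80 µL received 100 nL stock; the first replicate is given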
Mtb hypoxia inh – Mtb hypoxia fluorescent reporter inhibition; 0.1% of 300,000 active; M. tuberculosis hypoxia-regulated fluorescent reporter, fluorescence; fluorescence inhibition, % (concentration not given with the values);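 active = 35 to 45% if threefold the growth effect, above 45% if 1.5-fold the growth effect; inactive = the rest, general growth blockers included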;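 note: wells of about 50 µL received 100 nL stock; 0% = vehicle wells and 100% = reference inhibitor wells; whole bacteria with a GFP reporter of the hypoxia response; strong numbers were not always called active; many hits fall short of the cut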
PrP 5UTR inh – suppresses PrP 5' UTR mRNA reporter expression | cell-based PrP 5' UTR mRNA reporter, plate reader | inhibition, % (no concentration beside the values) | 0.35% of 340,000 active | AID 488862;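 active = every replicate at 50% or more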;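 note: 0 = median of the neutral control wells; tested in H4 reporter cells; numbers are from one replicate; inactives centre near -14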
Mtb hypoxia inh growth – recorded beside Mtb hypoxia inh, whose call it bears; growth inhibition, %; measured here: M. tuberculosis growth (absorbance);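 0% = vehicle and 100% = reference antibiotic; read after six days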
An asterisk follows results filed as active; / = not tested or not shown.

SMILES	PrP 5UTR inh	Mtb hypoxia inh	Mtb hypoxia inh growth	ugtP null kill	Autofluor counter	Sa RN4220 lethal	BJeLR viability
CN(CC(=O)NCCc1ccc(S(N)(=O)=O)cc1)S(=O)(=O)/C=C/c1ccccc1	-21	-9	-16	6	5476	6.0	-5
O=C(NC1CCCCC1)[C@@H]1CSC2c3ccccc3C(=O)N21 (some centres not stated)	-9	/	/	/	5866	/	1
O=C(O)CSc1nccn1-c1cccc(Cl)c1	44	/	/	-8	4088	4.2	6
Cn1nc(CC(=O)Nc2ncc(Br)s2)c2ccccc2c1=O	-13	/	/	-1	3496	4.7	6
CCCN1C2CCCC1CC(NC(=O)c1ccccc1)C2 (configuration not stated)	-11	11	2	16	6177	4.2	-1
O=C(N/N=C\C1CC=CCC1)c1ccc(Br)o1 (configuration not stated)	-13	/	/	/	4839	/	-17
O=[N+]([O-])c1ccccc1C=NN1CCCCCC1	-41	3	16	20	3610	13	/
CC(=O)Nc1ccc(S(=O)(=O)Nc2ccccc2C(=O)N2CCOCC2)cc1	-38	10	8	6	4000	-0.1	6
COc1ccc2oc(C(=O)CCC(=O)O)c(N)c2c1	-12	-2	12	5	6091	6.9	-7
Oc1ccccc1C1CC(c2cccs2)=NC(c2ccc(Cl)cc2)N1 (configuration not stated)	-31	7	8	30	4702	30	0
Cc1cc(C=O)c(C)n1-c1ccc(NC2CCCC2)c([N+](=O)[O-])c1	-7	-6	8	6	4294	0.7	-5
CCC(C)c1ccc(S(=O)(=O)N2CCN(CC(O)COCC3CCCO3)CC2)cc1 (configuration not stated)	-9	12	4	-1	5828	1.9	/

The results go on:
SMILES	PrP 5UTR inh	Mtb hypoxia inh	Mtb hypoxia inh growth	ugtP null kill	Autofluor counter	Sa RN4220 lethal	BJeLR viability
COc1ccc(C)cc1NS(=O)(=O)c1cccc2nonc12	-17	12	13	-1	4143	4.0	-2
CCCCN(CCCC)CCCNC(=O)C1CC(c2cc(C(F)(F)F)cc(C(F)(F)F)c2)=NO1 (configuration not stated)	3	6	7	-2	2787	1.2	-10
COc1ccc2c(c1)C(=O)N1C3c4cc(Br)ccc4OCC3C(c3ccccc3)[C@]1(C)C(=O)N2 (some centres not stated)	/	5	3	-27	/	-5.8	/
Cc1nccn1CC(=O)c1ccc(O)c(O)c1	-9	12	-2	-6	4775	-13	/
Cc1cc(C)n2nc(SCC(=O)NCc3ccco3)nc2n1	-22	-7	9	0	11176	2.4	-6
COC(=O)c1ccc(CSc2nc(C(F)F)cc(C)c2C#N)o1	-11	-1	3	8	3402	5.7	-13
CC(C)CCn1cnc2c([nH]c3cccc(Cl)c32)c1=O	-17	/	/	-2	4304	-2.2	-8
CC(C)C[C@H]1CN=C(Nc2ccccc2)N1CC(C)C	-31	10	11	2	3103	-5.8	/
Cc1ccc(NS(=O)(=O)c2c(C(=O)N3CCOCC3)c(C)n(C)c2C)cc1C	-22	17	3	11	6061	3.4	-12
O=C(CSc1nccn1-c1ccccc1)NCc1ccc(F)cc1	-17	6	6	1	4927	-1.7	5
CC(C)c1ccc(NS(=O)(=O)c2ccc3c(c2)oc(=O)n3C)cc1	-2	-6	-10	5	3762	0.6	12
CCOc1ccc(S(=O)(=O)n2ccc(C)n2)cc1	-74	/	/	/	3397	/	5

Entries of single compounds as entered above. Screens in order: PrP 5UTR inh | Mtb hypoxia inh | Mtb hypoxia inh growth | ugtP null kill | Autofluor counter | Sa RN4220 lethal | BJeLR viability
O=C(CSc1nccn1-c1ccccc1)NCc1ccc(F)cc1 in the list: -17 | 6 | 6 | 1 | 4927 | -1.7 | 5
Cc1cc(C)n2nc(SCC(=O)NCc3ccco3)nc2n1 in the list: -22 | -7 | 9 | 0 | 11176 | 2.4 | -6

The list continues:
SMILES	PrP 5UTR inh	Mtb hypoxia inh	Mtb hypoxia inh growth	ugtP null kill	Autofluor counter	Sa RN4220 lethal	BJeLR viability
CCOC(=O)CNc1nc(C(C)(C)C)nc2c1nnn2Cc1ccccc1Cl	7	3	0	19	23473*	5.3	0
O[C@@H]1CCCC[C@H]1N1CCC(c2ccccc2)CC1	50	/	/	/	4999	/	8
CC(=O)c1c(C)[nH]c(C(=O)CN(C)CC(=O)Nc2ccccc2Cl)c1C	-12	13	2	3	4593	2.0	/
CCc1ccc([C@H]2C(C(=O)O)=C[C@@H](C(C)(C)C)N2S(=O)(=O)c2ccc(C)cc2)cc1	7	-4	-4	-12	2993	12	/
Cc1ccc(S(=O)(=O)NCC(=O)N2CCN(c3ccccc3F)CC2)cc1	5	-1	14	2	1922	-7.4	7
CC[C@H](C)[C@H](NC(=O)c1ccccc1)C(=O)NC(CC(=O)O)c1ccc(F)cc1 (some centres not stated)	-3	-3	-20	0	3251	-1.3	-10
O=C(NCc1ccc(F)cc1)C(c1cccs1)N(C(=O)c1csnn1)C1CC1 (configuration not stated)	-8	3	10	4	16343*	6.9	1
COc1cccc(OC)c1C(=O)NC(=S)Nc1ccc2c(c1)OCCO2	-57	0	5	9	2112	4.0	6
Cc1ccc(NC(=O)CN2C(=O)NC(C)(CCc3ccccc3)C2=O)cc1 (configuration not stated)	0	-7	4	3	2960	3.0	16
O=C(Nc1cccc(-c2ccc(N3CCOCC3)nn2)c1)c1ccccc1Cl	-64	6	5	8	5485	7.8	3
O=C(Nc1ccccc1C(=O)N1CCCCC1)NC1CCCCC1	-34	-5	2	5	4781	9.7	1
C[C@H](CO)N1C[C@H](C)[C@@H](CN(C)Cc2ccccc2)Oc2c(NS(=O)(=O)c3cn(C)cn3)cccc2C1=O	-13	13	8	9	3120	3.7	/

Part of the list above in order of molar mass, highest first.
SMILES	PrP 5UTR inh	Mtb hypoxia inh	Mtb hypoxia inh growth	ugtP null kill	Autofluor counter	Sa RN4220 lethal	BJeLR viability
C[C@H](CO)N1C[C@H](C)[C@@H](CN(C)Cc2ccccc2)Oc2c(NS(=O)(=O)c3cn(C)cn3)cccc2C1=O	-13	13	8	9	3120	3.7	/
CCc1ccc([C@H]2C(C(=O)O)=C[C@@H](C(C)(C)C)N2S(=O)(=O)c2ccc(C)cc2)cc1	7	-4	-4	-12	2993	12	/
O=C(NCc1ccc(F)cc1)C(c1cccs1)N(C(=O)c1csnn1)C1CC1 (configuration not stated)	-8	3	10	4	16343*	6.9	1
Cc1ccc(NS(=O)(=O)c2c(C(=O)N3CCOCC3)c(C)n(C)c2C)cc1C	-22	17	3	11	6061	3.4	-12
CCOC(=O)CNc1nc(C(C)(C)C)nc2c1nnn2Cc1ccccc1Cl	7	3	0	19	23473*	5.3	0
CC[C@H](C)[C@H](NC(=O)c1ccccc1)C(=O)NC(CC(=O)O)c1ccc(F)cc1 (some centres not stated)	-3	-3	-20	0	3251	-1.3	-10
O=C(Nc1cccc(-c2ccc(N3CCOCC3)nn2)c1)c1ccccc1Cl	-64	6	5	8	5485	7.8	3
Cc1ccc(S(=O)(=O)NCC(=O)N2CCN(c3ccccc3F)CC2)cc1	5	-1	14	2	1922	-7.4	7
CC(=O)c1c(C)[nH]c(C(=O)CN(C)CC(=O)Nc2ccccc2Cl)c1C	-12	13	2	3	4593	2.0	/
COc1cccc(OC)c1C(=O)NC(=S)Nc1ccc2c(c1)OCCO2	-57	0	5	9	2112	4.0	6
Cc1ccc(NC(=O)CN2C(=O)NC(C)(CCc3ccccc3)C2=O)cc1 (configuration not stated)	0	-7	4	3	2960	3.0	16
CC(C)c1ccc(NS(=O)(=O)c2ccc3c(c2)oc(=O)n3C)cc1	-2	-6	-10	5	3762	0.6	12
COC(=O)c1ccc(CSc2nc(C(F)F)cc(C)c2C#N)o1	-11	-1	3	8	3402	5.7	-13
Cc1cc(C)n2nc(SCC(=O)NCc3ccco3)nc2n1	-22	-7	9	0	11176	2.4	-6
CC(C)C[C@H]1CN=C(Nc2ccccc2)N1CC(C)C	-31	10	11	2	3103	-5.8	/
CCOc1ccc(S(=O)(=O)n2ccc(C)n2)cc1	-74	/	/	/	3397	/	5
O[C@@H]1CCCC[C@H]1N1CCC(c2ccccc2)CC1	50	/	/	/	4999	/	8
Cc1nccn1CC(=O)c1ccc(O)c(O)c1	-9	12	-2	-6	4775	-13	/

(list continues)
SMILES	PrP 5UTR inh	Mtb hypoxia inh	Mtb hypoxia inh growth	ugtP null kill	Autofluor counter	Sa RN4220 lethal	BJeLR viability
CN(/N=C/c1ccc(Cl)cc1)c1ncc(Cl)cc1C(F)(F)F	-100	/	/	/	4800	/	1
COc1ccc(Cn2cccc(NC(=O)Nc3ccc(C#N)cc3)c2=O)cc1	-15	/	/	-3	6149	3.1	15
Cc1ccc(/C=C/c2nc3ccccc3[nH]2)o1	-82	-4	9	0	4765	3.6	17
COc1ccc(S(=O)(=O)Nc2cccnc2)c(Cl)c1Cl	-10	/	/	/	3842	/	-7
CC1CC(C)CN(S(=O)(=O)N2CCC(C(=O)NCCc3ccccc3)CC2)C1 (configuration not stated)	-24	/	/	/	5249	/	-6
CCOc1cc(C2NCc3ccccc3-n3cccc32)ccc1OC (configuration not stated)	-14	2	2	-1	3956	4.1	-14
COc1cccc(NC(=S)N(CCCN2CCOCC2)Cc2cn(C)c3ccccc23)c1	-9	8	6	1	2343	1.4	13
Cc1ccc(NC(=O)CS(=O)CC(=O)Nc2ccccc2-c2ccc(C)o2)cc1 (configuration not stated)	-28	/	/	/	4284	/	-10
COc1cc(C=NO)ccc1OCc1ccc([N+](=O)[O-])cc1	/	-11	-8	0	/	-0.2	/
CC1C(=O)Nc2ccccc2N1C(=O)c1ccc(O)cc1 (configuration not stated)	-20	3	3	7	3840	3.3	6
CCOCCCn1c(SCC(=O)Nc2ccc(NC(C)=O)cc2)nc2ccccc2c1=O	-6	1	5	3	3932	4.0	1
Cc1ccccc1NC(=O)CNc1ccccc1N1CCCCC1	-4	6	5	21	6770	6.0	-4

Later entries
SMILES	PrP 5UTR inh	Mtb hypoxia inh	Mtb hypoxia inh growth	ugtP null kill	Autofluor counter	Sa RN4220 lethal	BJeLR viability
O=C(c1ccc2c(=O)n(Cc3ccc4c(c3)OCO4)c(=O)[nH]c2c1)N1CCN(c2ccccc2)CC1	-8	7	-3	3	5207	2.0	-7
CCOc1ccc(OCC)c(-c2c(=O)n(OCc3ccc(C(C)(C)C)cc3)c3ccccc3[n+]2[O-])c1	-9	6	12	-4	11012	15	6
c1ccc(OCCCc2nc(-c3ccccn3)no2)cc1	-54	22	10	-7	2467	-13	5
CCN(C(=O)c1cccc(Br)c1)c1ccccc1	-16	11	6	18	2092	2.6	-21
O=C(NCCc1ccc(C(F)(F)F)cc1)C1CCC(=O)N(CCCN2CCCC2=O)C1 (configuration not stated)	-26	0	1	10	3092	4.7	-1
COc1ccc(C2=NC(C)(C)Cc3cc(OC)c(OC)cc32)cc1OC	-14	-4	8	3	3888	4.9	-4
CCc1ccc(O)c(N=Cc2cccc(C)c2O)c1	-26	1	6	-5	11987	3.5	-13
CCOC(=O)C1(CC/C(C)=N\NC(N)=O)CC(C)OC1=O (configuration not stated)	-13	/	/	/	2198	/	-8
Cc1ccccc1CC1(CO)CCCN(C(=O)c2cccc(Cl)c2)C1 (configuration not stated)	-21	0	2	19	3487	7.8	7
CC(=O)CC1c2ccccc2S(=O)(=O)N1c1ccccc1 (configuration not stated)	/	5	7	-6	/	6.0	/
COc1ccc(CCNC(=O)C(=O)NCC2OCCN2S(=O)(=O)c2ccc(Cl)cc2)cc1OC (configuration not stated)	-19	7	5	-2	6507	-15	-3
